Bioassay records (PubChem BioAssay)
VACV Venus inh = qHTS for Stage-Specific Inhibitors of Vaccinia Orthopoxvirus: Venus Reporter Primary qHTS; Vaccinia virus Venus reporter expression, fluorescence; Potency, µM (titrated, usually from 36.5 µM), for the others: at the highest dose activity change, negative = inhibition, actives largely listed as inhibitors; 0.46% of 330,000 active; active means well fitted inhibition curve with a large enough effect; inconclusive means small, poorly fitted or top-dose-only effect; inactive means no such curve, though single readings can be large or run the other way; tested in A549 cells; note: nearly all actives have a fitted effect of over 30% in size; inactives centre near -10
VACV mCherry inh = qHTS for Stage-Specific Inhibitors of Vaccinia Orthopoxvirus: mCherry Reporter Primary qHTS; Potency, µM (highest dose often 36.5 µM), without a hit: at the highest dose activity change, negative = inhibition, hits mostly inhibitors; 0.63% of 310,000 active; Vaccinia virus mCherry reporter infection, fluorescence; about a quarter of the inactives have no number; active = well fitted inhibition curve with a large enough effect; inconclusive = small, poorly fitted or top-dose-only effect; inactive = no such curve, though single readings can be large or run the other way; tested in A549 cells; note: nearly all actives have a fitted effect of over 35% in size; inactives centre near -10
Starred values were filed as active, the others as inactive; i = inactive; ? = inconclusive; nt = no result given; [ ] = remark or other dose. % is set by controls: 0 for no effect and ±100 for the full control effect; potency is the fitted concentration of half-maximal effect. Random draw from the library (roughly 0.87% active in at least one column).

SMILES | VACV Venus inh | VACV mCherry inh
COCCNS(=O)(=O)c1cc2[nH]c3c(c2cc1C)C(=O)CC(C)(C)C3 | -8% | i
CCn1c(=O)cc(SCC(=O)NCc2ccc(C)cc2)c2ccccc21 | -3% | -9%
COc1cccc(NC(CNS(=O)(=O)c2ccc(C)cc2)c2ccccc2)c1 (centres undefined) | -16% | -28%
Cc1ccc(NC(=S)N(CCCN2CCOCC2)Cc2ccccn2)cc1 | -6% | 1%
COc1cccc(CNC(=O)Cn2c(=O)nc(-c3ccccc3F)c3cc(Cl)ccc32)c1 | -5% | -9%
O=C(Nc1cccc(F)c1)[C@H](CSCc1ccccc1)N1Cc2ccccc2C1=O | -11% | -14%
Cc1ccccc1-n1cc[nH]c1=S | -7% | -1%
CC(C)CCNC(=O)c1cc(-c2cccnc2)nc2ccc(S(=O)(=O)N3CCC(C)CC3)cc12 | -7% | -7%
Oc1c(C(c2ccco2)N2CCC3(CC2)OCCO3)sc2ncnn12 (centres undefined) | -4% | -15%
CCOc1ccc(Nc2ncnc3c2nc2n3CCCCC2)cc1 | ? | ?
CCOCc1nnc(NC(=O)CCc2ccccc2)s1 | -3% | i
Cc1ccc(NC(=O)Nc2sc(=S)n(C)c2C)cc1 | 0% | -12%
Cc1cc(Cl)ccc1OCCCC(=O)NNC(=O)c1ccccc1O | -25% | ?
COCCNc1nc2nonc2nc1N(C)Cc1ccc(C)cc1 | 4% | -2%
COc1ccc(C2CC(c3ccccc3)=NN2C(=O)COC(=O)c2cccc(O)c2)cc1 (centres undefined) | -9% | -8%
O=C(/C=C/c1ccco1)c1cccnc1 | -8% | i
Cc1ccn2c(Nc3ccc4c(c3)OCCO4)c(-c3ccc(C)o3)nc2c1 | -8% | -13%
COc1ccc(C(CC(=O)N2CCCCC2)c2c(OC)cc(OC)c3c(-c4ccccc4)cc(=O)oc23)cc1 (centres undefined) | -7% | i
Cc1nnc(NC(=O)c2cccc(Br)c2)s1 | -9% | nt
CC(C)(N=NC(C)(C)C(=N)N)C(=N)N | ? | i
CC(=O)Nc1ccc(NC(=O)Cn2nc(C(=O)Nc3ccc(C)cc3)ccc2=O)cc1 | -6%[7.34 µM] | -8%[7.34 µM]
Cc1nc(C)c(C(=O)C2=C(O)C(=O)N(CCCn3ccnc3)C2c2ccc(Cl)cc2)s1 (centres undefined) | -4% | nt
CCCc1cc(=O)[nH]c(SCC(=O)N(CC)Cc2ccccc2)n1 | -17% | -26%
Cc1coc2c(C)c3oc(=O)c(CCC(=O)N4CCCCC4)c(C)c3cc12 | -13% | -7%
O=C(Nc1ccc(OC(F)(F)F)cc1)NC1COc2ccccc2C1 (centres undefined) | -11% | i
Cc1nn(CCCC(=O)Nc2ccccc2C(F)(F)F)c(=O)c2nn(-c3ccccc3)c(C)c12 | -17% | i
CSCC[C@H](NC(=O)c1cccc(S(=O)(=O)N2CCN(C)CC2)c1)c1nc2ccccc2[nH]1 | 9% | -11%
COc1ccc2nccc(/C=C/c3ccc(N(C)C)cc3)c2c1 | -9% | -13%
Clc1ccc(-c2ccc(C=Nc3ccc(N4CCOCC4)cc3)o2)c(Cl)c1 | -12% | -16%
COc1ccc(-c2c(C)nn3c(N4CCN(c5ccccc5F)CC4)cc(C)nc23)cc1OC | 0% | -5%
CCc1cc(C(=O)Nc2cc(S(=O)(=O)N(CC)CC)ccc2N2CCOCC2)sc1C | -18% | -4%
Cc1cc(C)c2nc(NC(=O)c3cccc(S(=O)(=O)N4CCc5ccccc54)c3)sc2c1 | -3% | i
Cn1c(C2CCCCC2)nc2c1c(=O)[nH]c(=O)n2Cc1ccccc1 | 2% | i
COc1cccc(CNC(=S)Nc2ccc3c(c2)c(=O)n(C)n3Cc2ccc(F)cc2)c1 | ? | i
NC(=O)CC(NC(=O)Cc1ccc(Br)cc1)c1ccc(NCc2ccccn2)c([N+](=O)[O-])c1 (centres undefined) | -24% | i
CCOC(=O)c1sc2nc(-c3ccco3)c3c(c2c1N)CC(C)(C)OC3 | 13µM* | 10µM*

Of the compounds above, 11 have a halogen.
SMILES | VACV Venus inh | VACV mCherry inh
COc1cccc(CNC(=O)Cn2c(=O)nc(-c3ccccc3F)c3cc(Cl)ccc32)c1 | -5% | -9%
O=C(Nc1cccc(F)c1)[C@H](CSCc1ccccc1)N1Cc2ccccc2C1=O | -11% | -14%
Cc1cc(Cl)ccc1OCCCC(=O)NNC(=O)c1ccccc1O | -25% | ?
Cc1nnc(NC(=O)c2cccc(Br)c2)s1 | -9% | nt
Cc1nc(C)c(C(=O)C2=C(O)C(=O)N(CCCn3ccnc3)C2c2ccc(Cl)cc2)s1 (centres undefined) | -4% | nt
O=C(Nc1ccc(OC(F)(F)F)cc1)NC1COc2ccccc2C1 (centres undefined) | -11% | i
Cc1nn(CCCC(=O)Nc2ccccc2C(F)(F)F)c(=O)c2nn(-c3ccccc3)c(C)c12 | -17% | i
Clc1ccc(-c2ccc(C=Nc3ccc(N4CCOCC4)cc3)o2)c(Cl)c1 | -12% | -16%
COc1ccc(-c2c(C)nn3c(N4CCN(c5ccccc5F)CC4)cc(C)nc23)cc1OC | 0% | -5%
COc1cccc(CNC(=S)Nc2ccc3c(c2)c(=O)n(C)n3Cc2ccc(F)cc2)c1 | ? | i
NC(=O)CC(NC(=O)Cc1ccc(Br)cc1)c1ccc(NCc2ccccn2)c([N+](=O)[O-])c1 (centres undefined) | -24% | i

(more compounds)
SMILES | VACV Venus inh | VACV mCherry inh
CCc1nnc(NC(=O)CSc2nccn2-c2ccc(OC)cc2)s1 | -20% | -5%
NC(=O)c1c(-c2ccc(Cl)cc2Cl)csc1NC(=O)Cc1ccccc1 | ? | -17%
CCCCC(CC)C(=O)N1CCN(C(=O)c2ccco2)CC1 (centres undefined) | -8% | i
COc1ccccc1CNn1c(-c2cccc(C)c2)nc2ccccc2c1=O | -6% | -8%
COc1cc(C2c3c(-c4ccc(C)cc4)n[nH]c3C(=O)N2c2ccc(F)cc2)ccc1O (centres undefined) | -17% | -22%
CCOC(=O)c1c(C)oc2nc(C)nc(NCc3ccc(OC)cc3OC)c12 | -8% | i
COc1ccc(-n2nnnc2C(c2ccccc2)N2CCN(C/C=C/c3ccccc3)CC2)cc1 (centres undefined) | -13% | 11%
Cc1ccc(S(=O)(=O)N(Cc2cccc(C(F)(F)F)c2)C(=O)N2CCN(C)CC2)cc1 | -8% | -14%
CCOC(=O)C(C)Sc1ncc(OC)c(=O)[nH]1 (centres undefined) | -11% | -12%
O=C(Nc1cccc(F)c1)Nc1ccc2c(c1)CCC2 | -5% | -12%
Cc1ccc(OCCNC(=O)CN2C(=O)NC3(CCCC3)C2=O)cc1 | -1% | 0%
CC(=O)Nc1ccc(NC(=O)CSc2ccc(-c3cccnc3)nn2)cc1 | -11% | -14%
CC[C@H](C)/C=C(C)/C=C/C(=O)Cc1cc(O)c(C)c(O)c1C=O | 22% | 5%
CCC1(c2ccc(C)cc2)C(=O)NC(=S)NC1=O | 1% | 41%[activator]
O=C(CSC1=NS(=O)(=O)c2cc(F)ccc2N1)NCCc1ccccc1 | -16% | -5%
CC(=O)c1c(C)[nH]c(C(=O)Nc2ccc(N3CCCCCC3)cc2)c1C | -21% | ?
COc1ccc(-c2c(C#Cc3ccccc3)c3ccccc3n2C)cc1 | -3% | 0%
O=C(CSc1nncs1)Nc1cc(-c2ccccc2)nn1-c1ccccc1 | -20% | -13%
CCOC(=O)N1CCN(C(=O)c2cccc(S(=O)(=O)Nc3ccc(Br)cc3)c2)CC1 | -22% | -25%
CS(=O)(=O)Nc1ccc(C2=NN(C(=O)C3CCCCC3)C(c3cccs3)C2)cc1 (centres undefined) | ? | -21%
O=C(Nc1ccc(Cl)c(S(=O)(=O)N2CCOCC2)c1)c1ccccn1 | -13% | -6%
CN(C)C1NC(=O)c2cc(-c3ccccc3)sc2N1 (centres undefined) | -30% | nt
O=C(NCc1ccccc1F)C1CCCN1S(=O)(=O)c1ccc(F)cc1 (centres undefined) | -11% | -17%
O=C(/C(=C\c1ccccc1)c1nc2ccccc2[nH]1)c1ccc(Cl)cc1 | -29% | -13%
COC(=O)c1ccc(NC(C)=O)o1 | -8% | nt
COc1ccc(O)c(C(=O)CC(=O)c2ccc(F)cc2)c1 | -10% | -2%
Oc1ccccc1N=Cc1sc2ccccc2c1Cl | -19% | ?
c1ccc(N2CCN(c3ncnc4sc5c(c34)CCC5)CC2)cc1 | -24% | ?
CC(=O)c1ccc(N2CCN(C(=O)/C=C/c3ccc(S(=O)(=O)N4CCOCC4)cc3)CC2)cc1 | -8% | -7%
CCCc1cc(=O)[nH]c2nnc(SCC(=O)Nc3nnc(CC)s3)n12 | -3% | -15%
Cc1csc(SCCn2c(N3CCN(c4ccccc4)CC3)nc3c2c(=O)[nH]c(=O)n3C)n1 | -2% | nt
CC(=O)Nc1ccc(-c2nnc(SCC(=O)c3ccc([N+](=O)[O-])cc3)o2)cc1 | 9% | -7%
CC(=NNC(=O)COc1cccc(C)c1)c1cccnc1 | -9% | -14%
O=C(N/C(=C/c1ccco1)C(=O)N1CCOCC1)c1cccs1 | -5% | i
CCc1nc(Sc2nnnn2-c2ccccc2)c2c3c(sc2n1)CCCC3 | -2% | 1%
COC(=O)c1cc(NC(=O)CN(c2ccccc2)S(=O)(=O)N(C)C)ccc1Cl | -1% | -9%

Rewritten as labelled records: part of the list above
> O=C(Nc1ccc(Cl)c(S(=O)(=O)N2CCOCC2)c1)c1ccccn1
  VACV Venus inh: -13%; VACV mCherry inh: -6%

> COCCNS(=O)(=O)c1cc2[nH]c3c(c2cc1C)C(=O)CC(C)(C)C3
  VACV Venus inh: -8%; VACV mCherry inh: i

Later entries
SMILES | VACV Venus inh | VACV mCherry inh
Cc1ccccc1NC(=O)Cn1c(=O)n(CCc2ccccc2)c(=O)c2sc3ccccc3c21 | -9% | -16%
CN(Cc1ccc(OC(F)F)cc1)C(=O)c1cccc(S(=O)(=O)N2CCN(Cc3ccccc3)CC2)c1 | -22% | -20%
CC1CCN(CC(=O)c2ccc3c(c2)OCCO3)CC1 | -2% | -8%
Cc1nnc(NC(=O)C2CCN(S(=O)(=O)c3ccc(Cl)cc3)CC2)s1 | -13% | -9%
CSc1ccc(CCNC(=O)CN2C(=O)c3cccnc3Oc3ccc(Cl)cc32)cc1 | -9% | i
S=C1CC2CCCC(C2)N1 (centres undefined) | -4% | i
O=C(c1ccc(Cl)s1)N1CCOCC1 | -12% | i
CC(C)(C)NC(=O)COc1ccc(CNCc2cccs2)cc1 | -10% | -8%
COc1ccccc1NS(=O)(=O)c1ccc(C(=O)NCCCN2CCOCC2)cc1 | -13% | -5%
COc1ccc(CC(N)c2csc(NC(=O)Nc3ccccc3Oc3ccccc3)n2)cc1 (centres undefined) | -18% | ?
Cc1cc(C(F)(F)F)nn1CC(=O)N(C)c1ccccc1 | -14% | i
COc1ccc(-c2csc(NC(=O)C3=COCCO3)n2)cc1OC | -15% | -21%
COc1cc(/C=N/NC(=O)c2cccnc2)ccc1OCC(=O)Nc1ccc(C)cc1 | -1% | -5%
COc1cccc(C2=NN(S(C)(=O)=O)C(c3cccs3)C2)c1 (centres undefined) | 0% | i
CC(C)c1ccc(O)c(NC(=S)NC(=O)CCc2ccccc2)c1 | -3% | -23%
COC(=O)c1cn(C(=O)c2ccc(Br)o2)c2ccccc12 | 2% | nt
CCOc1cc(C(=O)NCCOC)cc(OCC)c1OCC | -19% | nt
COc1ccc2c(c1)c[n+](C)c1c3cc(OC)c(OC)cc3ccc21 | -19% | -16%
CC1CC(Nc2ccccc2)=NC1(C)C (centres undefined) | -15% | -9%
COc1cccc(NC(=O)CSc2nnc3[nH]c(=O)cc(-c4ccccc4)n23)c1 | -15% | i
O=C(O)C1=CC2c3ccccc3C1c1ccccc12 | -14% | i
C[C@@H]1C=C[C@](Cc2ccccc2)(C(=O)NCC2CC2)N1C(=O)c1ccccc1 | -13% | -28%
COc1ccc(CCNC(=O)C(=O)NCC2CCCN2S(=O)(=O)c2ccccc2)cc1 (centres undefined) | -11% | i
CC(C)n1nnnc1-c1cccc(Cl)c1 | -7% | -7%
O=C(Nc1ccccc1)Nc1ccc(Cl)nc1Cl | -13% | -6%
CCc1ccc(NC(=O)C(=O)NCCc2sc(-c3ccc(OC)c(OC)c3)nc2C)cc1 | -45% | -26%
Cn1cc(S(=O)(=O)c2ccccc2)c(=O)c2cc(F)c(N3CCCCC3)cc21 | -8% | 3%
CC(=O)NCCNc1nc2c(-c3cccc(C)c3)nnn2c2ccc(Cl)cc12 | -1% | -1%
Cc1cccc(C)c1N1CCN(C(=O)c2ccc3c(c2)OCO3)CC1 | -16% | i
Cc1ccccc1CNC(=O)C(=O)NCC(c1ccc2c(c1)OCO2)N1CCOCC1 (centres undefined) | -10% | -8%
C[C@@H](O)[C@@H]1NC(=O)c2cc([N+](=O)[O-])cc(I)c2NCC[C@@H](C(N)=O)NC(=O)CNC1=O | -22% | i
COc1ccc(NC(=S)N2CCC(c3ccc(C)cc3)C2)cc1 (centres undefined) | -14% | -9%
O=C(Cc1cccc([N+](=O)[O-])c1)NCc1nc2cccnc2n1Cc1ccc(F)cc1 | -8% | -16%
O=S(=O)(NCC(c1cccnc1)N1CCN(c2ccccc2)CC1)c1cc(F)ccc1F (centres undefined) | -8% | -21%
Cc1cc(-c2cccs2)c2c(N)c(C(=O)c3ccc4c(c3)OCO4)sc2n1 | 0% | -12%
C/C(=N\N=C(/N)SC1CC(=O)N(c2ccc(Br)cc2)C1=O)c1cccs1 (centres undefined) | -16% | -12%
O=C(NNc1ccc([N+](=O)[O-])cc1)c1ccccc1Cl | -9% | -13%
COC(=O)c1sc(NC(=S)NC(=O)c2ccc(C)cc2)nc1C | -13% | -27%
O=C(CSc1nnc(CCCN2C(=O)c3cccc4cccc(c34)C2=O)n1-c1ccccc1)N1CCN(CCO)CC1 | -12% | i
